GIV Gai3 FP – blocks GIV peptide binding to rat Galpha-i3; actives 0.42% (n = 210,000); Galpha-i3/FITC-GIV peptide fluorescence polarization, 90 min; hits give low values; scaled: aluminum fluoride 0%, vehicle 100%; AID 1224905; P08753; percent of control (FP), % (test concentration not listed);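 active = replicate mean at 85% of control or lower, very high polarization wells dropped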;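 also: wells of about 15 µL received 100 nL stock; the first replicate is given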
Target sequence (P08753 whole entry, looked up): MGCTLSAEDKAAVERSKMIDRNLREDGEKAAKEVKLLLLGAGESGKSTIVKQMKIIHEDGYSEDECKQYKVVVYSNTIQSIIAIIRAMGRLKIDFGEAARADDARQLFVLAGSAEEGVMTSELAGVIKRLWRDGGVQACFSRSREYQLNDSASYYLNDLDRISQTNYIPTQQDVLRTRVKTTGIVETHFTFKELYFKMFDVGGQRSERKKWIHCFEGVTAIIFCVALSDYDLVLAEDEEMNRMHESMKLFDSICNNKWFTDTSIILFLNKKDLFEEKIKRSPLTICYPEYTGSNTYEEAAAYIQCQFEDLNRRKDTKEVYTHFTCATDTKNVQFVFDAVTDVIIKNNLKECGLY
* hit, by the source's call.

SMILES	GIV Gai3 FP
Cc1cc(C)nc(NS(=O)(=O)c2ccc(NC(=O)CN3CC(=O)NC(=O)C3)cc2)n1	102.8
COc1ccc(CCNC(=O)c2ccc3c(c2)ncn3-c2ccc(F)cc2F)cc1OC	105.0
O=C(NC1CCCC1)c1cccc(NC(=O)c2nsc3ccccc23)c1	107.9
Cc1oc(C2CCN(C(=O)NC3CCCCC3)CC2)nc1C(=O)N(C)C	99.2
Cc1ccccc1NC(=O)c1c(NC(=O)c2cccnc2)sc2c1CCCCC2	106.5
Cc1sc2c(=O)n(C)nnc2c1C(=O)NCCN(C)C	95.0
CCOC(=O)c1c(NC(=O)C(C)Sc2nnc3[nH]c(=O)cc(C)n23)sc2c1CCCC2 (centres undefined)	102.5
Cc1ccc(NC(=O)C2OC3OC(C)(C)OC3C3OC(C)(C)OC23)cc1Cl (centres undefined)	105.5
COc1ccc(C(=O)NCC(=O)N/N=C/c2ccc([N+](=O)[O-])s2)cc1	105.1
Cc1nc2cc(C(=O)NCc3ccc(F)cc3)ccc2n1-c1cccc(F)c1	111.8
CC12CCC(C(=O)N(c3cccc4ccccc34)C1=O)C2(C)C (centres undefined)	108.1
COCCNC(=O)c1ccc(Cn2c(SCC(=O)NCC3CCCO3)nc3ccc(Br)cc3c2=O)cc1 (centres undefined)	102.1
Cc1nc(CNC(=O)[C@H]2CSCN2S(=O)(=O)c2ccc(F)cc2)cs1	104.8
Cc1csc(-c2cc(S(=O)(=O)NCCN3CCCCC3C)cn2CC(=O)N2CCCCC2)n1 (centres undefined)	105.9
CCSc1nnc(NC(=O)CSc2nnc(NC(=O)COc3ccc(Cl)cc3)s2)s1	105.6
Cc1cc(N(C)C)nc(Nc2ccc(NC(=O)C3CCCO3)cc2)n1 (centres undefined)	106.9
CCC(C)C(=O)N1c2ccccc2C(N(C(=O)C(C)CC)c2ccccc2)CC1C (centres undefined)	114.4
O=S(=O)(c1ccccc1)N1CCn2cccc2C1c1ccccc1F (centres undefined)	107.1
COC(=O)c1ccc2c(c1)C=CC1(O2)c2ccccc2-c2ccccc2N1C (centres undefined)	97.9
COc1ccc(C2Nc3ccc4ccccc4c3C3=C2C(=O)CCC3)cc1 (centres undefined)	100.9
COc1ccc(C(=O)C2C(c3cccnc3)C(C#N)(C#N)C3c4ccccc4C=CN23)cc1 (centres undefined)	127.0
CC12CN3CC(C)(CN(C1)C3c1c[nH]c3ccccc13)C2=O (centres undefined)	114.4
CCOC(=O)c1nc(Nc2ccc3c(c2)OCCO3)c2c(C)c(C)n(-c3cccc(Cl)c3)c2n1	101.0
Cc1ccc2c(c1)NC(=O)c1cc(S(=O)(=O)N3CCOCC3)c(Cl)cc1O2	105.0
O=C1CN(C(=O)c2ccc(N3CCCCC3)c([N+](=O)[O-])c2)c2ccccc2N1	108.0
Cc1cccc(N(CC(O)CN(Cc2ccccc2)Cc2ccccc2)S(=O)(=O)c2ccccc2)c1 (centres undefined)	103.5
CCOC(=O)COc1nc(C)c(Br)c(COC)c1C#N	103.0
Fc1ccc2c(c1)c1nc3ccccc3nc1n2Cc1ccc(Cl)cc1	105.2
Cc1ccc(S(=O)(=O)N2CCC3(CC2)NCCN=C3NCc2ccccc2F)cc1C	102.6
COC(=O)C(NC(=O)c1ccccc1Cl)(Nc1sc2c(c1C#N)CCC(C(C)(C)C)C2)C(F)(F)F (centres undefined)	110.1
Cc1ccc(C)c(NC(=O)NC(C(=O)N2CCc3ccccc32)C(C)C)c1 (centres undefined)	100.1
C=CCNC(=O)c1cccc(NC(=O)c2nsc3ccccc23)c1	97.5
COc1ccc(C2Nc3ccc4ncccc4c3C3=C2C(=O)CC(C)(C)C3)cc1OC (centres undefined)	106.6
CCOc1ccc2nc(NC(=O)Cc3nn(C)c(=O)c4ccccc34)sc2c1	108.1
O=C(Nc1ccc2c(c1)OCCO2)c1cccc(-c2cc(N3CCCC3)ncn2)c1	101.9
N#CC1=C(N)Oc2n[nH]c(-c3ccc(F)cc3)c2C12C(=O)N(CC(=O)O)c1ccccc12 (centres undefined)	109.1
Cc1c(S(=O)(=O)NC(C)C)c(C)n(C)c1-c1nnc(C2CCC2)o1	104.3
COC(=O)c1cccc2c1NC(c1ccc(Cl)cc1Cl)C1CC=CC21 (centres undefined)	114.7
CC(=O)N1c2ccccc2N=C(c2ccc(C)cc2)CC1c1ccc([N+](=O)[O-])cc1 (centres undefined)	107.6
Cc1c(Cl)cccc1N1C(=O)C2C(c3ccccc3)OC3(C(=O)c4ccccc4C3=O)C2C1=O (centres undefined)	110.1
COC(=O)c1cc(S(=O)(=O)N2CCCN(S(=O)(=O)c3ccc(Cl)c(C(=O)OC)c3)CC2)ccc1Cl	108.3
O=C(CSc1nnnn1-c1ccccc1)Nc1ccc2nc(SCC(=O)NC3CC3)sc2c1	112.8
Cc1nn(C)c(C)c1CCN(C)c1nc(C2CC2)nc2c1CCC2	102.5
Nc1c(C(=O)Nc2nccs2)sc2nc3c(c(-c4cccs4)c12)CCC3	105.3
COC(=O)C1(OC)C(C(=O)c2ccc(Cl)cc2)=C(OC(c2ccccc2)c2ccccc2)C(=O)N1c1ccccc1 (centres undefined)	101.2
COc1ccc(NC(=O)c2ccc3c(=O)n(Cc4cccc(Br)c4)c(=S)[nH]c3c2)cc1OC	103.4
COCCNC(=O)c1ccc2c(c1)nc1n2CCCC1	105.9
COc1ccc(NC(=O)N2CCN(c3nc4cc(Br)ccc4n4cccc34)CC2)cc1	99.0
CCSc1nc2ccc(NS(=O)(=O)c3ccc(CC)cc3)cc2s1	101.7
C=CCN(C(=O)c1ccc(N2CC3CC(C2)c2cccc(=O)n2C3)c(NC(=O)c2ccc(OC)cc2)c1)c1ccccc1 (centres undefined)	114.7
(cont.)
SMILES	GIV Gai3 FP
CCN1C(=O)N(CC)C2C1N(C(C)=O)C(=O)N2C(C)=O (centres undefined)	105.3
Cc1nc(-c2cc(S(=O)(=O)N3CCCCC3)c(C)n2C)sc1C	106.5
CCCCNC(=O)c1sc2ncn(CCOCC)c(=O)c2c1C	106.8
COc1ccc(CC(=O)NCC2(c3ccc(OC)c(OC)c3)CCCC2)cc1OC	109.8
Cc1nnc(-c2c(C)[nH]c(C)c2S(=O)(=O)N2CCN(C3CCCCC3)CC2)o1	104.2
CCOc1ccc(C(=O)Nc2ccccc2-c2ccc3ccccc3n2)cc1	102.9
Cc1[nH]n(-c2ccccc2)c(=O)c1C(c1ccc(OC(=O)c2cccc([N+](=O)[O-])c2)cc1)c1c(C)[nH]n(-c2ccccc2)c1=O	124.7
CCOc1c(C(=O)OC)sc2ccc(NC(=O)Nc3cccc(Cl)c3)cc12	99.8
O=C(Nc1ccc(Cl)c(Cl)c1)C1OC2OC3(CCCCC3)OC2C2OC3(CCCCC3)OC12 (centres undefined)	103.1
CN(Cc1ccccc1)C(=O)c1ccc(-c2cc(NC3CCCCC3)ncn2)cc1	102.3
CC1CCCN(c2cc(-c3nc(-c4ccccc4)no3)c3ccccc3n2)C1 (centres undefined)	105.0
CC(C)c1cc(C2CCCN2C(=O)c2cccs2)on1 (centres undefined)	99.1
O=C(Nc1ccc(-c2cn3ccsc3n2)cc1)c1ccc2c(c1)OCO2	99.6
CCOc1ccc(-c2[nH]nc3c2C2(C(=O)N(CC(=O)OC)c4ccccc42)C(C#N)=C(N)O3)cc1 (centres undefined)	110.2
COc1ccccc1Oc1cc(-c2cccc(C(=O)Nc3cccc(Br)c3)c2)ncn1	106.1
COC(=O)c1c(C)oc2ccc(NS(=O)(=O)c3ccc4c5c(cccc35)C(=O)N4)cc12	107.6
O=[N+]([O-])c1ccc(C2CC(c3ccc(Br)cc3)=Nc3ccccc3N2)cc1 (centres undefined)	101.9
Cc1ccc(-c2ccc(N3CCOCC3)nn2)cc1S(=O)(=O)N1CCC(C)CC1	106.6
O=C1N=c2ccc(Br)cc2=C1c1sc(=S)n(-c2ccc(C(=O)O)cc2)c1O	113.9
CCCCCCOc1ccc(C(c2c(C)[nH]n(-c3ccccc3)c2=O)c2c(C)[nH]n(-c3ccccc3)c2=O)cc1	62.3*
COc1ccc(C2C(C#N)=C(N)N(c3ccc(Br)cc3)C3=C2C(=O)CCC3)cc1 (centres undefined)	109.9
O=C(CCC(=O)NC1CCCCC1)Nc1noc2ccccc12	98.8
Cc1nc(S(=O)(=O)N2CCc3c(c(-c4nnc(-c5ccc(F)cc5)o4)nn3C)C2)cn1C	110.5
O=C(Nc1cc(-c2ccsc2)no1)c1ccsc1	100.1
Cn1c(=O)c2nc(SCCC(=O)O)n(Cc3ccc(F)cc3)c2n(C)c1=O	99.5
COc1ccc(Nc2nc(-c3ccccc3O)nc3ccccc23)cc1	104.1
O=C(NCC1CCN(Cc2ccccc2F)CC1)c1cc2ccccn2c1	102.6
CC1(C)CC(=O)C2=C(C1)N=C1c3ccccc3C(=O)C1C2c1cc([N+](=O)[O-])ccc1O (centres undefined)	108.5
Cc1cccc(N2C(=O)/C(=C/c3ccc(-c4ccc([N+](=O)[O-])cc4)o3)C=C2c2ccccc2)c1	126.3
CCn1c(=O)c(=O)n(CC(=O)NCCOC)c2cccnc21	102.1
CC1(C(=O)O)NC(c2ccc(O)cc2O)C2C(=O)N(Cc3ccccc3)C(=O)C21 (centres undefined)	117.6
Cc1nc(-c2cc(S(=O)(=O)N3CCC(Cc4ccccc4)CC3)c(C)s2)sc1C	99.0
Cc1ccc(C)c(-c2nc(-c3ccc4c(c3)oc(=O)n4C)no2)c1	100.6
NC(=O)C1CCN(C(=O)c2ccc3c(=O)n(Cc4ccco4)c(SCc4ccc(F)cc4)nc3c2)CC1	108.6
CCCCN1CCN(c2ccc(-c3csc(S(=O)(=O)N4CCCCC4)c3)nn2)CC1	98.6
Cc1cccc(-c2cnc(N3CCC(C(=O)N(C)C4CCCCC4)CC3)nc2)c1	102.2
Cc1nn2c(SCC(=O)Nc3cccc(Cl)c3)nnc2[nH]c1=O	101.9
CCOc1ccc(-n2c(SCC(=O)Nc3cc(OC)ccc3OC)nc3n[nH]c(C)c3c2=N)cc1	110.4
O=C(Nc1ccc(-c2nc3ccccc3s2)cc1)c1ccccn1	104.5
Cn1nccc1-c1csc(S(=O)(=O)NC2CC2)c1	100.2
CC1CCC2(CC1)NCCN=C2NCc1cccc(F)c1 (centres undefined)	99.6
Cc1nnc(-c2c(C)[nH]c(C)c2S(=O)(=O)N2CCCC(C)C2)o1 (centres undefined)	102.4
CC(C)N1C(=O)c2ccccc2Sc2cc(-c3noc(C4CCC4)n3)ccc21	100.3
CCc1ccc(NC(=O)NCc2ccc3c(c2)N(C(=O)c2cccc(C)c2)CC3)cc1	103.9
COc1ccccc1Oc1ccc2c(c1)C(=O)N(c1ccc(O)cc1)C2=O	109.4
CCOC(=O)c1[nH]c(C)c(CN(C(=O)Nc2ccc(OC)c(OC)c2)C2CCCCC2)c1C	112.6
O=C(CSc1nc2cc(Cl)ccc2s1)Nc1cccc([N+](=O)[O-])c1	108.1
Cc1c(S(=O)(=O)N2CCN(c3ccccn3)CC2)cc(-c2nc(-c3ccccc3)cs2)n1C	112.7
Cc1ccc(NC(=O)Cn2cnc3sc(C(=O)Nc4cccc(C(F)(F)F)c4)c(C)c3c2=O)cc1Cl	105.2
O=C(C1CCCCC1)N1CCC(c2ccncc2)CC1	102.5

Ordered by heavy-atom count (low to high): part of the list above
SMILES	GIV Gai3 FP
CCn1c(=O)c(=O)n(CC(=O)NCCOC)c2cccnc21	102.1
CCCCNC(=O)c1sc2ncn(CCOCC)c(=O)c2c1C	106.8
O=C(Nc1ccc(-c2nc3ccccc3s2)cc1)c1ccccn1	104.5
O=C(Nc1ccc(-c2cn3ccsc3n2)cc1)c1ccc2c(c1)OCO2	99.6
O=C1N=c2ccc(Br)cc2=C1c1sc(=S)n(-c2ccc(C(=O)O)cc2)c1O	113.9
CC1CCCN(c2cc(-c3nc(-c4ccccc4)no3)c3ccccc3n2)C1 (centres undefined)	105.0
CCCCN1CCN(c2ccc(-c3csc(S(=O)(=O)N4CCCCC4)c3)nn2)CC1	98.6
CC1(C)CC(=O)C2=C(C1)N=C1c3ccccc3C(=O)C1C2c1cc([N+](=O)[O-])ccc1O (centres undefined)	108.5
Cc1nc(S(=O)(=O)N2CCc3c(c(-c4nnc(-c5ccc(F)cc5)o4)nn3C)C2)cn1C	110.5
COc1ccc(NC(=O)c2ccc3c(=O)n(Cc4cccc(Br)c4)c(=S)[nH]c3c2)cc1OC	103.4
CCOC(=O)c1nc(Nc2ccc3c(c2)OCCO3)c2c(C)c(C)n(-c3cccc(Cl)c3)c2n1	101.0
COC(=O)C(NC(=O)c1ccccc1Cl)(Nc1sc2c(c1C#N)CCC(C(C)(C)C)C2)C(F)(F)F (centres undefined)	110.1
Cc1cccc(N(CC(O)CN(Cc2ccccc2)Cc2ccccc2)S(=O)(=O)c2ccccc2)c1 (centres undefined)	103.5
CCCCCCOc1ccc(C(c2c(C)[nH]n(-c3ccccc3)c2=O)c2c(C)[nH]n(-c3ccccc3)c2=O)cc1	62.3*

Other entries:
SMILES	GIV Gai3 FP
CCC(C)NC(=O)c1cc(NS(=O)(=O)c2ccc(Cl)cc2)ccc1N1CCNCC1 (centres undefined)	101.6
O=C1c2ccccc2-c2cc(Cl)nc3ccc(Nc4ccccc4)c1c23	101.5
Cc1cccc(-n2nnnc2C2(N=Cc3ccccc3)CCCCC2)c1	104.8
Cc1cccc(NC(=O)C2CCN(c3nc(-c4ccc(C(C)C)cc4)no3)CC2)n1	104.5
O=C(Nc1cccc(F)c1)c1cc(-c2ccc(Cl)cc2)nc2ccccc12	103.9
COCc1cnc2c(c1SCC(N)=O)c(=O)n(C)c(=O)n2C	102.3
Cc1ccccc1CSc1ccc(-n2nc3c(c2C)CCC3)nn1	98.7
Cc1ccc(C(=O)N2CCCC2c2cc(C)on2)cc1 (centres undefined)	102.3
CCCS(=O)(=O)c1c(S(=O)(=O)CCC)c2ccc(C(C)=O)cn2c1C(=O)c1ccc(F)cc1	111.3
O=C(Nc1ccc(S(=O)(=O)N2CCCCC2c2cccnc2)cc1)c1ccccc1Br (centres undefined)	118.1
Cc1cccc2oc3cc(NCCCN(C)C)c4c(=O)c5ccccc5c(=O)c4c3[nH]c12	103.0
CCCc1nc2c3ccccc3n(CC(=O)c3ccc4c(c3)OCO4)c(=O)n2n1	101.8
O=S(=O)(c1cccc2nonc12)N1CCCc2ccccc21	107.7
O=C(Nc1cccc(F)c1)C1CC(=O)N(c2ccc3c(c2)CCN3C(=O)C2CCC2)C1 (centres undefined)	100.3
Cc1nnc(SCc2cccc(C(=O)Nc3ccc(I)cc3C)c2)s1	106.7

Screens from PubChem BioAssay.

Only part of the results is shown (hit frequency here may not be typical).
